Autofluor counter = counter-screen for toxin protease inhibitors: compound fluorescence | hit rate 3.1% among 360,000 | fluorescence intensity (concentration not given with the values) | compound autofluorescence counterscreen, microsphere flow cytometry; stronger effect = higher value;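 active means at least 3 SD above the mean of all compounds, about 16000 in these data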;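 further: 100 nL of 1 mM stock went into each well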
ugtP null kill = compounds lethal to S. aureus RN4220 ugtP deletion mutant; OD600 growth, 16 h; some inactives read as strong as hits; growth inhibition, % (test concentration not listed); hit rate 0.54% among 330,000; AID 1259309;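 active means z-score under -3 and OD600 up to 0.15 on both plates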;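 further: plate controls were untreated wells for no effect and antibiotic for full effect; wells of about 80 µL received 100 nL stock; the first replicate is given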
Mtb hypoxia inh = reduces hypoxia-regulated biosensor signal in M. tuberculosis | M. tuberculosis hypoxia-regulated fluorescent reporter, fluorescence | fluorescence inhibition, % (no concentration beside the values) | hit rate 0.1% among 300,000;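 active means 35 to 45% if threefold the growth effect, above 45% if 1.5-fold the growth effect; inactive means the rest, general growth blockers included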;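 further: wells of about 50 µL received 100 nL stock; 0% = vehicle wells and 100% = reference inhibitor wells; whole bacteria with a GFP reporter of the hypoxia response; strong numbers were not always called active; many hits fall short of the cut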
BJeLR lethal = BJeLR cell viability loss; hit rate 0.17% among 300,000; inhibition, % (test concentration not listed); BJeLR (HRASV12) viability, CellTiter-Glo ATP luminescence, 48 h; reference of the scale not given here; AID 1554;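 active means replicate mean above 50%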;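 further: 50 nL library stock added to about 25 µL; numbers are from one replicate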
Sa RN4220 lethal = kills Staphylococcus aureus RN4220; S. aureus RN4220 growth, OD600, 16 h; inhibition, % (concentration not given with the values); hit rate 0.33% among 330,000;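 active means z-score of -3 or lower and OD600 up to 0.18 on both plates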;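 further: plate controls were untreated cells for no effect and reference antibiotic for full effect; stock transfer was 100 nL into about 80 µL; one replicate is shown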
PrP 5UTR inh = suppresses PrP 5' UTR mRNA reporter expression. inhibition, % (concentration not given with the values). cell-based PrP 5' UTR mRNA reporter, plate reader. AID 488862. hit rate 0.35% among 340,000;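 active means every replicate at 50% or more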;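 further: 0 = median of the neutral control wells; tested in H4 reporter cells; numbers are from one replicate; inactives centre near -14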
Mtb hypoxia inh growth = recorded beside Mtb hypoxia inh, whose call it bears; growth inhibition, %; measured here: M. tuberculosis growth (absorbance);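 0% = vehicle and 100% = reference antibiotic; read after six days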
Numbers without * were called inactive; / = not tested or not shown; & = joins results of further samples.

SMILES | Autofluor counter | ugtP null kill | Mtb hypoxia inh | Mtb hypoxia inh growth | BJeLR lethal | Sa RN4220 lethal | PrP 5UTR inh
Cn1nnnc1SCC1=C(C(=O)O)N2C(=O)C(NC(=O)C3CC3c3ccccc3)C2SC1 (stereo unspecified) | 4361 | 99.6* | / | / | 0.5 | 100.2* | -11.8
CC(C)(C)OC(=O)NCc1ccc(CNC(=O)c2[nH]cnc2C(=O)NC2CCN(C(=O)OC(C)(C)C)CC2)cc1 | 3621 | 6.2 | 8.4 | 4.5 | / | 10.1 | -26.4
CC(CCc1ccccc1)NC(=O)C1CC1 (stereo unspecified) | 5752 | -8.3 | -0.5 | 1.2 | 7.4 | -2.0 | /
O=C(CN(c1ccccc1)S(=O)(=O)c1ccc(F)cc1)N1CCCCCC1 | 2801 | -6.0 | / | / | 4.1 | -1.7 | -22.0
O=C(Nc1ccccc1)OC1CN=C(N[N+](=O)[O-])NC1 (stereo unspecified) | 4216 | 1.4 | -6.8 | -8.9 | 3.6 | 2.9 | -3.2
Cc1cc(C)nc(NS(=O)(=O)c2ccc(NC(=O)CCC(=O)O)cc2)n1 | 3754 | 5.9 | 1.7 | 5.9 | 3.8 | 4.4 | -27.2
Cn1c(Oc2ccccc2NCc2cc(Br)ccc2O)cc(=O)n(C)c1=O | 4739 | 14.1 | / | / | 5.0 | -6.3 | -2.4
O=C(Nc1cccc2c1CCCC2)c1ccco1 | 20290* | 1.1 | 21.4 | 30.5 | 2.0 | 5.1 | -10.1
COc1cccc(C(c2c(C)[nH]n(-c3ccccc3)c2=O)c2c(C)[nH]n(-c3ccccc3)c2=O)c1O | 5631 | 5.8 | 16.9 | 2.9 | 0.4 | 3.1 | -8.1
CCOc1cc(N2CCOCC2)c(OCC)cc1NC(=O)c1ccc(-n2ccnc2)c([N+](=O)[O-])c1 | 3658 | 0.4 | -1.7 | -1.3 | -7.7 | 2.2 | -17.3
Cc1ccc(N2C(=O)N(CC(=O)N3c4ccccc4CC3C)C(=O)C2C)cc1 (stereo unspecified) | 5325 | 10.4 | 0.5 | -10.8 | / | 1.3 | -11.9
Cc1cc(C)c(S(=O)(=O)N2CCN=C2c2ccccc2)cc1C | 22172* | 6.4 | 8.1 | -3.1 | -2.8 | 6.9 | 6.0
COC(=O)c1sccc1NC(=O)C=Cc1ccc(Cl)cc1 | / | 2.0 | 2.2 | 6.1 | / | 10.1 | /
Cc1ccc(S(=O)(=O)NC(=O)NCC2CCN(S(=O)(=O)c3ccccc3)CC2)cc1 | 3181 | 8.7 | -2.0 | 6.1 | 4.7 | 4.3 | -15.8
Cc1n[nH]c(C)c1S(=O)(=O)N(CC(=O)Nc1ccc2c(c1)OCCO2)c1ccc(C(C)C)cc1 | 4357 | 6.6 | / | / | 0.0 | 0.9 | -26.2
Cc1ccc(C(=O)Nc2ccccc2C(=O)NC(CC(=O)O)C(=O)O)cc1 (stereo unspecified) | 9383 | -1.8 | 13.5 | 5.5 | 5.2 | 3.6 | 1.7
COc1ccc(S(=O)(=O)N2CCOCC2)cc1C(=O)Nc1nc2ccccc2s1 | 11609 | -8.0 | -9.9 | -0.1 | -7.7 | -1.4 | -21.7
CN(C)c1ccc(C(=NO)c2ccccc2)cc1 | / | 10.5 | 6.0 | 8.2 | / | 3.0 | /
Cc1cc(C)c2c(n1)sc1c(=O)[nH]c(SCc3ccccc3)nc12 | 3702 | -3.7 | 16.7 | 16.5 | -13.3 | 15.0 | -12.0
O=S1(=O)C=C(SCCN2CCCC2)c2ccccc21 | 4184 | 3.7 | 12.6 | 7.6 | -6.5 | 6.7 | -8.6
COc1ccc(CCNC(=O)Cn2c(=O)oc3cc(Cl)ccc32)cc1OC | 3986 | 2.6 | -2.3 | 1.5 | -5.7 | 4.2 | /
CCCN1CCN(CCCNC(=O)C2CCN(c3nnc(-n4cccc4)s3)CC2)CC1 | 3192 | -8.9 | -2.9 | -1.8 | 8.0 | 3.0 | -4.7
Cc1ccc(-c2nc(CN(CC3CCC3)CC3CCCO3)c(C)o2)s1 (stereo unspecified) | 4483 | -4.6 | 3.6 | 7.7 | 6.8 | -2.5 | -26.6
CCN(CC)S(=O)(=O)c1cc(C(=O)OCC(=O)NC2CCCc3ccccc32)ccc1C (stereo unspecified) | 2563 | -1.9 | 5.1 | 10.6 | 6.1 | -3.6 | -9.2
CON=C(CNC(=O)c1ccccc1Cl)c1ccc(Cl)cc1 | / | 0.5 | -3.2 | 3.8 | / | -16.0 | /
COc1ccc(CC(C(=O)Nc2cc(C)ccc2C)/C(N)=N/O)cc1 (stereo unspecified) | 16939* | 4.5 | -1.0 | 1.7 | 7.0 | 0.8 | -12.0
CCc1nc2sc(C)c(C)c2c(=O)n1CCO | 3430 | -0.4 | 12.0 | 1.6 | -5.9 | 7.3 | -19.6
CSc1nnc(Cc2sc(-c3ccccc3)nc2-c2ccccc2)o1 | 2150 | -0.8 | / | / | 1.0 | 2.3 | -11.6
COc1cccc(NC(=O)CNC(=O)N2CC(=O)Nc3ccccc32)c1 | 5862 | 2.0 | -2.0 | 12.2 | -1.1 | 0.2 | -19.6
O=[N+]([O-])c1ccc(N2CCCC2)cc1NC1CC1 | 2220 | 1.9 | 9.2 | 2.9 | 5.9 | 12.0 | -4.2
CC(C)CC(COCc1ccc(F)cc1)N1CCN(C(=O)c2cccc(C(F)(F)F)c2)CCC1=O (stereo unspecified) | 3952 | -7.1 | 7.5 | 17.5 | 11.0 | 2.6 | -16.6
COc1ccc(S(=O)(=O)N2CCCCCC2)cc1C(=O)OC(C)C(N)=O (stereo unspecified) | 3904 | 5.6 | 14.4 | 9.2 | 3.6 | 2.0 | -13.6
C=CCNc1nc(-c2ccc(OC)cc2OC)cs1 | 21095* | -6.1 | 0.0 | 6.2 | 1.8 | 14.5 | -80.6
CC1C/C(=N/NC(=O)c2ccc(CSc3nc4ccccc4[nH]3)cc2)CC(C)(C)C1 (stereo unspecified) | 8455 | / | / | / | -4.2 | / | -21.4
CC1=C(C(N)=O)C(c2ccc(Br)cc2)n2nc(CCCO)nc2N1 (stereo unspecified) | 3888 | 0.4 | -10.1 | 5.1 | -1.8 | 0.8 | -28.1
O=C(Cc1ccc(Br)cc1)Nc1ccc(S(=O)(=O)Nc2ncccn2)cc1 | 3255 | 13.9 | 8.2 | 2.7 | -0.3 | -1.3 | -19.5
CC(Cc1cccs1)NCc1ccccc1 (stereo unspecified) | 4370 | 4.2 | 11.0 | 0.6 | -5.2 | 11.4 | -20.9
Cc1cc(Cl)ccc1NC(=S)NCCc1ccc(S(N)(=O)=O)cc1 | 4606 | 10.1 | / | / | 12.4 | -1.2 | -12.7
Cc1ccc(C)c(N2CC(C(=O)OCC(=O)Nc3cc(C)on3)CC2=O)c1 (stereo unspecified) | 4140 | 6.4 | 4.7 | 6.1 | -11.5 | 4.4 | 9.1
COc1ccc(CCN2C(=NC(=O)CCC(=O)O)SC3CS(=O)(=O)CC32)cc1 (stereo unspecified) | 13175 | 5.1 | 7.2 | 17.8 | 2.0 | 6.8 | -19.4
COc1ccc(C(=O)NCc2ccncc2)cc1S(=O)(=O)NCc1ccc(Cl)cc1 | / | 4.0 | 4.0 | 0.6 | / | 3.2 | 1.8
CC1=CC(=C2C(=O)NC(=S)NC2=O)C=C(C(F)(F)F)N1Cc1ccccc1 | 3860 | 9.7 | -11.9 | 18.6 | 24.6 | 3.3 | 14.2
C=CCN1C(=O)N(/C=C/C)c2cccc3cccc1c23 | 9764 | 1.3 | 22.8 | 13.9 | 1.7 | 8.3 | -15.5
CCCCNC(C(=O)Nc1ccc([N+](=O)[O-])cc1Br)c1ccccc1 (stereo unspecified) | 2504 | -1.0 | 8.5 | 3.0 | 3.9 | -0.6 | -51.3
CC(=O)Nc1ccc(N2C(=O)CSC2c2cccc(Br)c2)cc1 (stereo unspecified) | 3572 | 13.5 | -2.3 | 2.3 | 0.8 | 1.7 | -20.9
c1ccc(CN2CCC3(CC2)Nc2ccccc2S3)cc1 | 4793 | -28.1 | 1.8 | 11.6 | 6.3 | -0.1 | 10.5
COc1ccc(SC(CCN2CCC(C)CCC2=O)c2ccccc2)cc1 (stereo unspecified) | / | 11.9 | 6.5 | 12.1 | / | 4.2 | /
Cc1ccc(S(=O)(=O)Nc2ccc3nc(-c4cccn4C)[nH]c3c2)cc1 | 2801 | -3.7 | 3.7 | 3.9 | 3.7 | 2.7 | -21.6
Cc1cc(NC(=O)CSc2nc(=O)n3cc(Cl)ccc3n2)no1 | 5077 | 5.6 | 3.5 | 13.8 | 4.1 | 1.6 | -14.8
CCOC(=O)c1sc2nc(CN3CCCCC3)nc(Cl)c2c1C | 3341 | 4.0 | 3.5 | 3.3 | -0.2 | 5.4 | -14.5
CCn1nnc(-c2ccc(N)cc2)n1 | 2535 | 4.8 | 4.4 | 1.3 | -4.1 | 5.4 | -0.6
Cc1ccc(C(=O)c2ccccc2C(=O)OCC(=O)Nc2cccc([N+](=O)[O-])c2)cc1 | 10752 | -5.0 | -1.5 | 2.4 | 0.4 | 10.6 | 6.8
NC(=O)c1ccc(NC(=O)COC(=O)C2COc3ccccc3O2)cc1 (stereo unspecified) | 4135 | 6.9 | 7.2 | 7.0 | / | 4.2 | -21.5
C=CCNC(=S)N/N=C(\C)c1ccccn1 | 16885* | / | / | / | 0.6 | / | 42.0
CCOC(=O)c1cn(-c2ccc(F)c(F)c2F)c2c(F)c(F)c(F)cc2c1=O | 9601 | -5.5 | -4.5 | -0.6 | 6.4 | -2.8 | 6.3
Cc1noc(NS(=O)(=O)c2ccc(NC(=O)COc3ccc(C#N)cc3)cc2)c1C | 3358 | 3.3 | 14.2 | 17.7 | / | 4.7 | -13.6
O=C(COC(=O)c1cccc(NS(=O)(=O)c2ccc(F)c(F)c2)c1)NC(=O)NC1CCCC1 | 1983 | -16.0 | 3.9 | 4.5 | 5.4 | 7.1 | -18.3
O=C(N/C(=C\c1ccco1)C(=O)N1CCCC(CO)C1)c1ccccc1 (stereo unspecified) | 6600 | -2.8 | -5.8 | -4.8 | 2.9 | -0.8 | -22.1
Cc1c(C)c2ccc(OC(C)C(=O)N3C[C@H]4C[C@@H](C3)c3cccc(=O)n3C4)c(C)c2oc1=O (stereo partly specified) | 5550 | -0.7 | / | / | 5.3 | 3.0 | -29.5
Cc1cccc(NC(=O)c2ccccn2)c1C | 3824 | -2.5 | 15.8 | 10.1 | 10.5 | 1.7 | -66.9

Retrieved by structure from above (6):
SMILES | Autofluor counter | ugtP null kill | Mtb hypoxia inh | Mtb hypoxia inh growth | BJeLR lethal | Sa RN4220 lethal | PrP 5UTR inh
O=C(COC(=O)c1cccc(NS(=O)(=O)c2ccc(F)c(F)c2)c1)NC(=O)NC1CCCC1 | 1983 | -16.0 | 3.9 | 4.5 | 5.4 | 7.1 | -18.3
CCOC(=O)c1sc2nc(CN3CCCCC3)nc(Cl)c2c1C | 3341 | 4.0 | 3.5 | 3.3 | -0.2 | 5.4 | -14.5
Cc1ccc(C(=O)c2ccccc2C(=O)OCC(=O)Nc2cccc([N+](=O)[O-])c2)cc1 | 10752 | -5.0 | -1.5 | 2.4 | 0.4 | 10.6 | 6.8
CCCCNC(C(=O)Nc1ccc([N+](=O)[O-])cc1Br)c1ccccc1 (stereo unspecified) | 2504 | -1.0 | 8.5 | 3.0 | 3.9 | -0.6 | -51.3
c1ccc(CN2CCC3(CC2)Nc2ccccc2S3)cc1 | 4793 | -28.1 | 1.8 | 11.6 | 6.3 | -0.1 | 10.5
COc1ccc(SC(CCN2CCC(C)CCC2=O)c2ccccc2)cc1 (stereo unspecified) | / | 11.9 | 6.5 | 12.1 | / | 4.2 | /

Later entries.
SMILES | Autofluor counter | ugtP null kill | Mtb hypoxia inh | Mtb hypoxia inh growth | BJeLR lethal | Sa RN4220 lethal | PrP 5UTR inh
Cc1cc([N+](=O)[O-])nn1CC(=O)N/N=C/c1ccccc1O | 4347 | / | / | / | -8.1 | / | -32.0
O=C(O)c1ccc(OCCn2ccnc2)cc1 | 5853 | 1.0 | 2.2 | 0.3 | 9.8 | 1.3 | 6.1
CCC1CCCCN1S(=O)(=O)c1ccc([N+](=O)[O-])cc1 (stereo unspecified) | 2807 | 0.2 | 1.0 | -1.5 | -4.0 | 7.1 | -0.1
COc1ccc2c(c1)c(=O)oc1cc(OCC(=O)NC3CCCCC3)ccc12 | 7500 | -12.7 | 12.2 | 10.8 | 9.5 | -0.1 | -22.4
CC(=O)CC(O)CC(=O)C1OC(=O)CCCCCCc2ccccc21 (stereo unspecified) | / | 1.4&6.1&4.2 | 12.7&24.1&10.6 | 11.4&10.0&8.5 | / | 4.1&14.7&6.2 | /

Screening data as filed in PubChem.

An unsorted share of the library (roughly 3.9% active in at least one column).
